From PubChem
StopGo RLuc: lowers the Renilla signal of an FMDV 2A StopGo reporter; Potency, µM (titrated, usually from 57.5 µM), for inactives: at the highest dose signal change, negative = less light; HEK cells with a luciferase reporter of 2A StopGo recoding; 120,000 tested, 0.32% active; AID 1745857; active means well fitted falling curve with a large enough effect; inconclusive means small, poorly fitted or top-dose-only effect; inactive means no such curve, though single readings can be large or run the other way; further: nearly all actives have a fitted effect of over 55% in size; overnight with compound
StopGo FLuc: lowers the firefly signal of an FMDV 2A StopGo reporter | 120,000 tested, 0.23% active | Potency, µM (top dose mostly 57.5 µM), for the others: at the highest dose signal change, negative = less light | HEK cells with a luciferase reporter of 2A StopGo recoding; active = well fitted falling curve with a large enough effect; inconclusive = small, poorly fitted or top-dose-only effect; inactive = no such curve, though single readings can be large or run the other way; further: nearly all actives have a fitted effect of over 60% in size; overnight with compound
An asterisk follows results filed as active; ? = inconclusive; & = joins results of further samples; [ ] = remark or other dose. On the % scale 0 is the no-effect control and ±100 the full control effect; potency means the concentration at half of the fitted maximal effect.

The line under a structure holds: StopGo RLuc | StopGo FLuc
CC1=CCC(/C=N/NC(N)=O)CC1 (stereo not given)
→ 3% | 20%
CCCN1C=NS(=O)(=O)c2cc(C(=O)NCCc3ccccc3)ccc21
→ 24% | 22%
CN(C(=O)c1cc2nc(-c3ccco3)cc(C(F)(F)F)n2n1)c1ccc(OC(F)(F)Cl)cc1
→ -11% | -10%
Cc1noc(/C=C\c2ccc(S(=O)(=O)N3CCCc4ccccc43)cc2)c1NC(=O)C1CC1
→ -26% | ?
COCC(C)NC(=O)C1CCN(Cc2ccc(F)cc2)CC1 (stereo not given)
→ -11% | -5%
NS(=O)(=O)c1ccc(NC(=O)NC2CCSc3ccccc32)cc1 (stereo not given)
→ 17% | 80%[activator]
CCc1cccc2c(C(=O)CN3C(=O)CC4(CCCC4)C3=O)c[nH]c12
→ 66%[activator] | 0%
COC(=O)c1ccccc1NCC(=O)NC(=O)NC(C)C
→ -3% | 13%
CC(C)NC(=O)Nc1cccc(C(=O)NC(C)c2cccc(Cl)c2)c1 (stereo not given)
→ 70%[activator] | 2%
Fc1ccc(Nc2nc3nonc3nc2Nc2cccc(C(F)(F)F)c2)cc1
→ -5% | ?
CC1CCN(C(=O)c2ccc3c(c2)N(Cc2ccccc2F)C(=O)c2ccccc2S3(=O)=O)CC1
→ 116%[activator] | -6%
CC(CNC(=O)c1ccc2nc(CCc3ccccc3)oc2c1)c1ccccc1 (stereo not given)
→ 10% | -1%
O=C(Nc1cccc(S(=O)(=O)N2CCCCCC2)c1)c1n[nH]c(=O)c2ccccc12
→ -6% | -5%
O=C(c1ccccc1)N1CCN(Cc2nnnn2C2CC2)CC1
→ -13% | -2%
CCCC(NC(N)=O)C(=O)N1CCN(S(=O)(=O)c2ccc(OC)cc2)CC1 (stereo not given)
→ -11% | -7%
CCc1ccc(CNC(=O)CCn2nc(C)c3c(C)n(-c4ccccc4)nc3c2=O)cc1
→ -9% | -12%
O=C(Cn1cc(S(=O)(=O)Cc2ccc(F)cc2)c2ccccc21)NCc1ccccc1
→ -16% | 0%
C=C(C)Cn1c(N2CCN(Cc3ccccc3F)CC2)nc2c1c(=O)[nH]c(=O)n2C
→ -7% | 30%
COc1ccc(-c2nc(S(=O)(=O)c3ccc(Cl)cc3)c(NCc3ccccc3)o2)cc1
→ 35%[activator] | -8%
COc1ccc(-c2cc(NC(=O)Cc3cccs3)n(C3CCS(=O)(=O)C3)n2)cc1 (stereo not given)
→ 213%[activator] | -11%
O=C(Nc1c2c(nn1-c1ccc(Cl)cc1)CS(=O)(=O)C2)c1cccc(Cl)c1
→ -14% | -28%
O=C(Cn1ccc2cc(Cl)ccc21)Nc1ccc(O)cc1
→ 90%[activator] | 16%
CC1CCC(N2CC(=O)N(C3CCCCC3)C(c3ccc(F)cc3)C2=O)CC1 (stereo not given)
→ 12% | 6%
CCCc1cc(=O)n2nc(N(C)CC(=O)Nc3ccccc3Br)sc2n1
→ 25% | 27%
Cc1cc(C)cc(-n2ncc3c(=O)n(CC(O)COc4ccc(F)cc4)cnc32)c1 (stereo not given)
→ ? | ?
O=C(Nc1ccc(C23CC4CC(CC(C4)C2)C3)cc1)c1ccccc1Cl
→ 7% | -10%
Cc1cc(NC(=O)COc2c(C)cc(Cl)cc2Cl)ccc1NC(=O)c1ccco1
→ 15% | -2%
COc1cc(CNc2ncn[nH]2)ccc1OCc1ccccc1
→ -2% | 183%[activator]
CC(C)NC(=O)C(Cl)c1ccccc1 (stereo not given)
→ -3% | -15%
Fc1ccc(-c2nn(-c3ccc(Cl)cc3)c3c2cnc2ccc(F)cc23)cc1
→ 6% | -19%
CCOc1ccc(CC(=O)NCCc2sc(-c3cccc(F)c3)nc2C)cc1
→ ? | ?
CCc1ccc(-n2nc(C)c3c(C)cc(=O)n(CC(=O)Nc4cc(C)ccc4C)c32)cc1
→ 7% | 30%[activator]
O=C(O)c1ccc(C(F)(F)F)cn1
→ 9% | 5%
CCCOc1ccc(NC(=O)CC2C(=O)N(c3ccc(C)cc3)C(=O)N2Cc2cccc(OC)c2)cc1 (stereo not given)
→ -5% | -17%
COc1cccc(-c2ccc3c(N)c(C(=O)c4ccc(Cl)cc4)sc3n2)c1
→ -8% | -14%
N#Cc1nc(-c2ccc(F)cc2)oc1NCC(c1cccs1)N1CCOCC1 (stereo not given)
→ -2% | -17%
COC(=O)CN1C(=O)C(O)(CC(=O)c2ccc(F)cc2)c2ccccc21 (stereo not given)
→ 5% | 10%
Cc1ccc2c(c1)N(C(=O)Cn1c(=O)n(CCC(=O)N3CCCCC3)c(=O)c3sccc31)CCO2
→ 0% | 4%
COc1cccc(NC(=O)c2c(C)oc3nc(C)nc(N4CCCC4)c23)c1
→ -7% | -22%
Cc1cc(-c2ccccc2)c(-c2nc3ccccc3s2)[nH]1
→ 1% | 0%

Exported as a markdown table: 5 of the compounds above.
| canonical_smiles | StopGo RLuc | StopGo FLuc |
| --- | --- | --- |
| COc1cccc(NC(=O)c2c(C)oc3nc(C)nc(N4CCCC4)c23)c1 | -7% | -22% |
| O=C(Cn1ccc2cc(Cl)ccc21)Nc1ccc(O)cc1 | 90%[activator] | 16% |
| CCOc1ccc(CC(=O)NCCc2sc(-c3cccc(F)c3)nc2C)cc1 | ? | ? |
| CCc1ccc(-n2nc(C)c3c(C)cc(=O)n(CC(=O)Nc4cc(C)ccc4C)c32)cc1 | 7% | 30%[activator] |
| Cc1cc(NC(=O)COc2c(C)cc(Cl)cc2Cl)ccc1NC(=O)c1ccco1 | 15% | -2% |

The list continues.
The line under a structure holds: StopGo RLuc | StopGo FLuc
COc1ccc(NC(=O)c2oc3ccccc3c2NC(=O)C2CCCCC2)c(OC)c1
→ -9% | -9%
O=C(CCC(=O)c1ccc(Cl)cc1)OCCOc1ccc(Br)cc1
→ 7% | 9%
O=C(CCC(=O)c1ccc(Cl)cc1)OCC(=O)c1cccc(I)c1
→ -5% | -3%
CCOC(=O)N1CCN(C(=O)CN(c2cccc(OC)c2)S(=O)(=O)c2ccc(C)cc2)CC1
→ 44%[activator] | 9%
CN(C)C(=O)C(Sc1nc2ccccc2o1)c1ccccc1 (stereo not given)
→ 15% | ?
CC(C)CNC(=O)NC(=O)COC(=O)c1cc(-c2cccs2)nc2ccccc12
→ -1% | 12%
CCc1ccc(Cn2nccc2NC(=O)c2nn(CC)c(=O)c3ccccc23)cc1
→ 1% | ?
COc1ccc(S(=O)(=O)N2CCC(C(=O)Nc3ccccc3F)CC2)c2cccnc12
→ -5% | -8%
N#Cc1nc(COc2ccc(F)cc2)oc1N1CCC(Cc2ccccc2)CC1
→ -2% | 4%
CCOc1cccc2cc(-c3nc4sc5c(c4c(=O)[nH]3)CCC(C)C5)c(=O)oc12 (stereo not given)
→ 80%[activator] | 98%[activator]
CCOC(=O)CSC1=Nc2ccccc2C2=NC(CCC(=O)NCc3ccc(OC)cc3)C(=O)N12 (stereo not given)
→ -6% | -7%
Cc1ccc2occ(CC(=O)Nc3sc4c(c3C(N)=O)CCCC4)c2c1
→ 9% | 17%
COc1ccc(C(=O)Nc2nnc(S(=O)(=O)N3CCCc4ccccc43)s2)cc1
→ 3% | 87%[activator]
Cc1ccc(S(=O)(=O)c2nc(-c3cccs3)oc2N2CCC(C)CC2)cc1
→ -13% | -19%
COc1ccc(NC(=O)CN2C(=O)C(C)(C)c3cc(S(=O)(=O)N4CCCC4)ccc32)cc1Cl
→ 137%[activator] | -7%
CCOc1ccc(NS(=O)(=O)c2c(C)nc3sc(C)c(C)n3c2=O)cc1
→ 5% | -26%
O=C(O)CC(O)(c1ccccc1)c1ccccc1
→ -9% | 2%
CCCCNC(=S)N(c1ccccc1)C(C)C
→ 20% | -3%
C[C@]12CCC(=O)C=C1CC[C@@H]1[C@@H]2C(=O)C[C@@]2(C)[C@H]1CC[C@]2(O)C(=O)CO
→ -8% | -15%
CC1(C)CC(=O)c2cc(C#N)c(SCc3ccccc3)nc2C1
→ 23% | 16%

Shown as a markdown table: four of the compounds above
| mol | StopGo RLuc | StopGo FLuc |
| --- | --- | --- |
| CC1(C)CC(=O)c2cc(C#N)c(SCc3ccccc3)nc2C1 | 23% | 16% |
| CCOc1ccc(NS(=O)(=O)c2c(C)nc3sc(C)c(C)n3c2=O)cc1 | 5% | -26% |
| COc1ccc(NC(=O)CN2C(=O)C(C)(C)c3cc(S(=O)(=O)N4CCCC4)ccc32)cc1Cl | 137%[activator] | -7% |
| O=C(CCC(=O)c1ccc(Cl)cc1)OCC(=O)c1cccc(I)c1 | -5% | -3% |

(more compounds)
The line under a structure holds: StopGo RLuc | StopGo FLuc
CC(NS(=O)(=O)c1cccc2nsnc12)C12CC3CC(CC(C3)C1)C2 (stereo not given)
→ 115%[activator] | -2%
C#CCOc1ccc(/C=C(/C#N)c2cccc(F)c2)cc1OC
→ -1% | 67%[activator]
Cc1ccc(CN(C(=O)c2ccc(C(C)(C)C)cc2)c2ccccn2)o1
→ 55%&140%[activator] | -28%&97%
CC(C)N1CCC(NC(=O)C2CC2)CC1
→ 12% | 0%
COc1ccc2c(c1)CCc1c(C(=O)Nc3ccccc3C(F)(F)F)noc1-2
→ 4% | 19%
Cc1cccc(-n2c(SCC(N)=O)nc3c(c2=O)C2(CCCC2)Cc2ccccc2-3)c1
→ ? | ?
Cc1ccc(C2CC(=O)CC(=O)C2)cc1
→ 5% | 10%
Cc1cc(=O)c2ccccc2n1CC(=O)O
→ 4% | 7%
Cc1cccc(NC(=O)CCc2ncc(-c3ccc(F)cc3)o2)c1
→ -11% | 19%
CCCOC(=O)COc1ccc2c(=O)c(-c3ccccc3OC)c(C(F)(F)F)oc2c1
→ 4% | 8%
CCN(CC)C(=O)c1sc2c(c1C)c(=O)n(Cc1ccccc1)c(=O)n2Cc1ccc(Cl)cc1
→ 15% | -21%
COC(=O)c1cc(OCCOc2ccccc2Cl)cc(C(=O)OC)c1
→ 15% | 0%
Cc1cccc(OC(C)C(=O)N2CCC(c3nc4ccccc4o3)CC2)c1C (stereo not given)
→ 17%&7% | 3%&-27%
CCc1ccc(N2CC(C(=O)Nc3ccc(S(=O)(=O)Nc4ncccn4)cc3)CC2=O)cc1 (stereo not given)
→ -7% | -5%
CCOC(=O)c1cc(-c2ccccc2)n(-c2cccc(C(=O)Nc3cccc(C)c3)c2)c1C
→ -14% | -15%
Cc1ccc(C)c(N2CCN(CCCNC(=O)Nc3cc(Cl)ccc3C)CC2)c1
→ 12% | -10%
Cc1ccsc1/C=C/C(=O)c1ccc2ccccc2c1
→ -12%[1.06 µM] | 196%[activator]
CC[C@@]1(c2ccccc2)NC(=O)N(C)C1=O
→ -5% | -18%[11.5 µM]
CCOC(=O)c1cc2cc(Oc3ccc4[nH]c(C(=O)OCC)cc4c3)ccc2[nH]1
→ 11% | 98%[activator]
CN(Cc1ccccc1)c1ccc(-c2nc(-c3ccncc3)no2)cc1[N+](=O)[O-]
→ -8% | 52%[activator]

Record cards, as listed above. Screens in order: StopGo RLuc	StopGo FLuc
`Cc1cc(=O)c2ccccc2n1CC(=O)O` in the list: 4%	7%
`Cc1ccc(CN(C(=O)c2ccc(C(C)(C)C)cc2)c2ccccn2)o1` in the list: 55%&140%[activator]	-28%&97%
`C#CCOc1ccc(/C=C(/C#N)c2cccc(F)c2)cc1OC` in the list: -1%	67%[activator]

Other results.
The line under a structure holds: StopGo RLuc | StopGo FLuc
CC(C)c1ccc(OC(=O)c2cc(-c3ccccc3)on2)cc1
→ -6% | -9%
O=C(NCC1CC1)C1CCCN1S(=O)(=O)c1ccc(Br)s1 (stereo not given)
→ 13% | 2%
O=C(Cn1c(-c2cscn2)nc2ccccc21)Nc1cccc(N2CCCC2=O)c1
→ -4% | 13%
Cc1cc(C)cc(NC(=O)c2cc(S(=O)(=O)N3CCCC3)ccc2F)c1
→ -18% | 24%
COc1ccc(C2CC(=O)Nc3c2c(C)nn3-c2nncc(-c3ccc(C)cc3)n2)c(OC)c1OC (stereo not given)
→ 10% | 2%
O=C(CCc1nc2cccnc2n1Cc1cccs1)Nc1cccc(Cl)c1
→ 45%[activator] | -5%
O=C(Nc1ccc2nc(SCC(=O)N3CCc4ccccc43)sc2c1)c1ccc(F)cc1
→ 4% | -6%
Cc1csc2nc(COC(=O)c3ccccc3NC(=O)c3cccc(Br)c3)cc(=O)n12
→ 1% | ?
Cc1ccc(OCC(=O)Nc2c(C)ccc3nsnc23)cc1C
→ 13% | 19%
COC(=O)C1=C(C)N(c2ccccc2)C(=O)CC1C(=O)Nc1ccc(F)c(F)c1 (stereo not given)
→ 0% | -14%
COC(=O)c1cc(-c2cccs2)nc2ccccc12
→ -8% | 6%
COc1ccc(-n2c(=O)c3c4c(sc3n(C)c2=O)CN(C(C)=O)CC4)cc1
→ -5% | -7%
CCc1nn2c(=O)cc(COC(=O)c3ccc(NC(=O)COc4ccccc4C)cc3)nc2s1
→ -5% | 8%
Cc1ccc(CSC2=Nc3ccccc3C3=NC(CC(=O)NCc4cccs4)C(=O)N23)c(C)c1 (stereo not given)
→ -17% | -3%
COc1ccc(/C=C/C(=O)Oc2ccc(Br)cc2)cc1
→ 14% | 22%
CC(NC(=O)c1sc2ccccc2c1Cl)c1ccncc1 (stereo not given)
→ 12% | 3%
COc1ccc(NC(=O)CC2C(=O)N(c3ccc(C)cc3)C(=O)N2C2CCCCC2)cc1 (stereo not given)
→ 7% | -10%

An excerpt (hit frequency here may not be typical).
